E coli growth: E. coli growth inhibition. Escherichia coli growth, OD600, 23 h; stronger effect = lower value. OD600 absorbance (concentration not given with the values). 0.21% of 330,000 active. AID 1053175;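 active = OD600 absorbance below the run mean of sample wells minus 3.6 SD, in any replicate, cut at about 0.56 in these data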;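 also: stock transfer was 300 nL into about 60 µL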
Beta2AR agonist: human beta-2 adrenergic receptor agonism by FAP. Am2.2-beta2AR cells, FAP receptor internalization, flow cytometry; reference of the scale not given here. response, % (concentration not given with the values). 0.43% of 340,000 active;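 active = response above a set limit, near 3 SD of response in nonfluorescent compounds, cut at about 42% in these data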;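 also: stock transfer was 100 nL into about 11 µL; a reference agonist was the positive control; negative values mostly stem from fluorescent compounds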
Target sequence (P07550 whole entry, looked up): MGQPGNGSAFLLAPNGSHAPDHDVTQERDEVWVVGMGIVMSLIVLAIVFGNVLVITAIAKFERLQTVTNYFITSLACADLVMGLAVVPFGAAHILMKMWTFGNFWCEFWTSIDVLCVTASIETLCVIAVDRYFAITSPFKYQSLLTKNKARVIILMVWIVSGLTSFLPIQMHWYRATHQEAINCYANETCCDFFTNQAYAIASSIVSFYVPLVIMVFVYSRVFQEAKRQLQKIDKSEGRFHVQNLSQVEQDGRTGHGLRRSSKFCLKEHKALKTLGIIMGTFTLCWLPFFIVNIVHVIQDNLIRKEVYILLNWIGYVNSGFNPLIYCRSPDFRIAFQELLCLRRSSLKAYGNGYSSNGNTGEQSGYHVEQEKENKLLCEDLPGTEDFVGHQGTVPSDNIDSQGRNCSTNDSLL
FGF22 binding: FGF22 (human) thermal shift binding; 1.5% of 340,000 active; AID 651658; calls only at 9.99 µM; recombinant FGF22 thermal shift, SYPRO orange fluorescence; percent of sucrose octasulfate shift, DMSO zero; Q9HCT0;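 active = melting point raised past a set limit in the mean and every replicate; three in four hits are not shown here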
Target sequence (Q9HCT0 whole entry, looked up): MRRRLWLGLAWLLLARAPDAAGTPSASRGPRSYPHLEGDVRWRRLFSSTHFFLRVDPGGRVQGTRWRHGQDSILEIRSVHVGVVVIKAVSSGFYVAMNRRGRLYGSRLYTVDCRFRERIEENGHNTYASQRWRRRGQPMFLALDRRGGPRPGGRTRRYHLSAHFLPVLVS
HNF4A DNA FP: change in binding of human HNF4 alpha to DNA | P41235 | HNF4a-FITC DNA binding, fluorescence polarization, 1 h | activity change, % at 10 µM | 0.3% of 360,000 active | AID 1224865; in the data active = activity change above about 30%, passing the limit was not always enough;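 also: controls were the assay level and a saturating level of protein; the project sought stronger binding though the title names inhibitors; some compounds called inactive have numbers as strong as hits; positive values seem to mean higher polarization but the record does not say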
Target sequence (P41235 whole entry, looked up): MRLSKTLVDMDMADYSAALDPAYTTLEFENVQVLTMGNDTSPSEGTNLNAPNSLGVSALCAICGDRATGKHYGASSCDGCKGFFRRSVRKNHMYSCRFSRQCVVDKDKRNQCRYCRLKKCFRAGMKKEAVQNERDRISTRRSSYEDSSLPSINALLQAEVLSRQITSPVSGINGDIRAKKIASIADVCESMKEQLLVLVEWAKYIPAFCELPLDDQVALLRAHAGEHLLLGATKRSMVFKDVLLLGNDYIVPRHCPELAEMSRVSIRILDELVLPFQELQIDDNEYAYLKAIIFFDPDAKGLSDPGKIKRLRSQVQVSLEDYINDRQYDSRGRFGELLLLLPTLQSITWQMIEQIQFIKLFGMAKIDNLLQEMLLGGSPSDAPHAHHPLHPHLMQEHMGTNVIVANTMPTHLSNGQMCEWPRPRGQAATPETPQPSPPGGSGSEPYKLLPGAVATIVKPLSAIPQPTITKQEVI
UCH37 DUB inh: human UCH37 deubiquitinating enzyme inhibition; 0.33% of 330,000 active; purified proteasome/UCH37, Ub-AMC cleavage fluorescence; Q9Y5K5; inhibition, % (concentration not given with the values);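 active = mean of two replicates above 20%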;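 also: 0% = compound-free wells with enzyme and 100% = wells lacking proteasome; stock transfer was 100 nL into about 20 µL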
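System: Proteasome-associated human UCH37 deubiquitinase; Input: 0.15 nM proteasome in added enzyme buffer; Also added: Ub-AMC substrate from 1 µM stock; Incubation: 30 min compound-proteasome preincubation then 25 min substrate reaction, room temperature; Detection: fluorescence, ex 355 nm, em 460 nm; Read-out: % inhibition of Ub-AMC cleavage fluorescence; Benchmarks: no-proteasome and no-compound wells.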
rRNA inh HTS: inhibitors of bacterial rRNA selective over humanized ribosomes; E. coli WT GFP vs humanized-ribosome RFP mutants, fluorescence, 24 h; stronger effect = lower value; DMSO median 0, no signal -100; GFP signal change (wild-type ribosome), % (no concentration beside the values); 1.6% of 350,000 active; AID 720706;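 active = significant combined selectivity score with lowered wild-type GFP, culture density cut under 30%, mutant RFP and density less affected; inactive = any of these conditions unmet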; also: one replicate is shown; some compounds called inactive have numbers as strong as hits
ALR H2O2 inh: human ALR oxidase inhibition via reduced H2O2. inhibition, % (no concentration beside the values). 3.8% of 290,000 active. P55789. purified ALR, DTT oxidation, H2O2 HRP-luminol luminescence;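 active = mean and each replicate at 75% or more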;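 also: stock transfer was 7.5 nL into about 7.5 µL; 0% = neutral wells and 100% = wells with inactivated enzyme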
rRNA inh HTS OD600: further read-out of rRNA inh HTS, marked with its call; OD600 change, %; measured here: OD600 growth;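 optical density of the mix in the first replicate; 0 = DMSO median and -100 = no signal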
rRNA inh HTS RFP: second read-out of rRNA inh HTS, no call of its own (marks repeat the call); RFP signal change, %; measured here: RFP humanized mutant strains;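 first replicate; 0 = DMSO median and -100 = no signal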
The depositor's hits bear a star; i = inactive; . = no result given. This is a subset (hit frequency here may not be typical).

SMILES	E coli growth	Beta2AR agonist	FGF22 binding	HNF4A DNA FP	UCH37 DUB inh	rRNA inh HTS	rRNA inh HTS OD600	rRNA inh HTS RFP	ALR H2O2 inh
Cc1nnc(Sc2nc3c(c(=O)[nH]c(=O)n3C)n2CCc2ccccc2)s1	0.755	-9.2	i	1.8	1.1	5.2	8.3	1.3	1.5
O=C(NCCCn1ccnc1)/C(=C\c1ccccc1F)NC(=O)c1ccccc1	0.689	-4.0	i	-2.3	1.3	3.5	10.9	-3.7	-8.4
COc1cc(/C=N/N=C(N)N)ccc1OCc1ccc(Cl)cc1	.	37.9	i	4.4	.	-59.6	-81.8	-22.9	-14.8
CN1C(=O)c2ccccc2N(C)C1c1cccc(O)c1 (configuration not stated)	.	-3.2	i	-1.8	.	3.0	-5.1	0.1	3.6
CCCCNC(=O)/C(C#N)=C/c1ccc2c(c1)OCCO2	0.738	-1.0	i	0.9	2.3	5.0	2.9	4.1	.
O=C(CCCCC(=O)Nc1ccc(F)cc1F)Nc1ccc(F)cc1F	0.697	-7.8	i	1.6	2.6	.	.	.	-9.1
CCOC(=O)N1CCN(S(=O)(=O)N2CCCC(C(=O)NCc3ccccc3OCC)C2)CC1 (configuration not stated)	.	.	i	1.9	.	1.9	13.8	2.5	.
O=C(Nc1nnc(CCS(=O)(=O)c2ccc(Br)cc2)s1)c1ccc([N+](=O)[O-])cc1	0.712	10.0	.	1.7	1.5	.	.	.	-17.7
Clc1ccc(-c2noc(CN3CCCC3)n2)cc1	0.7	-8.3	.	-3.4	-0.7	.	.	.	-2.6
CN1C(=O)C(O)(CC(=O)c2ccc3c(c2)OCO3)c2ccccc21 (configuration not stated)	0.672	-5.6	.	-0.3	2.5	.	.	.	-3.4
CC(C)c1nc2oc3c(N4CCNCC4)ncnc3c2c2c1CCC2	0.73	-11.1	i	2.8	-3.2	1.8	2.7	2.1	.
CC(=O)N1C[C@H]2CON(C)[C@H]2C[C@H]1c1ccc(-c2cccnc2)cc1	.	.	i	-1.2	.	10.8	15.3	-3.4	.
CCCCn1c(N)c(N(CC(C)C)C(=O)C2CC(=O)N(c3ccc4c(c3)OCCO4)C2)c(=O)[nH]c1=O (configuration not stated)	0.695	1.9	i	1.0	3.6	6.3	9.2	-0.7	-1.7
O=C(COC(=O)c1ccccn1)c1ccc(Br)cc1	0.705	-1.2	.	1.3	4.6	.	.	.	-8.6
CN1CCN(c2ccc(CNC(=O)c3ccc(-c4ccnn4C)c4ccoc34)cc2)CC1	.	.	i	4.4	.	-1.1	-4.0	1.5	.
CCN1C(=O)C(CC(=O)NC2CCCCC2)N(CC)C1=O (configuration not stated)	0.631	3.7	.	2.5	1.4	.	.	.	.
O=C(c1ccccc1)c1cc2ccccc2o1	0.767	-1.7	.	-1.5	6.1	.	.	.	-3.9
Clc1ccc(CSc2nnc(NC3=NCCCCC3)s2)cc1	0.699	-8.6	.	0.7	0.0	.	.	.	-3.8
O=CN1CCN(C(=O)c2cccc3c2-c2ccccc2C3=O)CC1	0.68	-2.9	i	-2.1	3.5	-1.7	1.3	-2.3	-9.0
CC1(C)C=C(c2ccc(C=O)s2)CC(C)(C)N1	0.778	-2.3	.	3.0	8.8	.	.	.	-6.3
O=C(O)c1[nH]c2ccccc2c1C(c1cccc(O)c1)c1c(C(=O)O)[nH]c2ccccc12	0.691	-1.2	i	-3.6	5.7	-25.6*	-18.5*	8.5*	.
CC(=O)c1cn(C)c(=O)[nH]c1=O	0.641	15.4	i	6.8	4.0	16.1	7.7	2.4	-2.3
CCCCCn1c(=O)c(-c2nc3ccccc3[nH]2)c(O)c2ccccc21	0.685	10.7	i	-0.2	i	15.4	21.4	2.5	-5.3
COC(=O)c1sc(=S)n(Cc2ccccc2)c1C	0.602	1.4	i	-1.4	2.6	-24.2*	-11.8*	-4.0*	3.1
Cc1ccc(-c2nc(SCC(=O)Nc3cc(S(=O)(=O)N4CCCCC4)ccc3Cl)n[nH]2)cc1	0.726	-3.9	.	-0.3	1.5	.	.	.	0.0

Next part, overlapping the part above by 2 compounds.
SMILES	E coli growth	Beta2AR agonist	FGF22 binding	HNF4A DNA FP	UCH37 DUB inh	rRNA inh HTS	rRNA inh HTS OD600	rRNA inh HTS RFP	ALR H2O2 inh
COC(=O)c1sc(=S)n(Cc2ccccc2)c1C	0.602	1.4	i	-1.4	2.6	-24.2*	-11.8*	-4.0*	3.1
Cc1ccc(-c2nc(SCC(=O)Nc3cc(S(=O)(=O)N4CCCCC4)ccc3Cl)n[nH]2)cc1	0.726	-3.9	.	-0.3	1.5	.	.	.	0.0
COc1ccc(OC)c(CNC(=O)CCS(=O)(=O)c2ccc3c(c2)oc(=O)n3C)c1	0.703	-2.5	i	0.5	4.5	3.5	7.3	0.6	0.6
COc1ccc(NC(=O)CSc2ncnc3c2cnn3Cc2ccccc2)cc1OC	0.688	2.4	.	-1.6	4.5	.	.	.	13.3
COc1ccc(-c2nn(-c3ccccc3)cc2CNC(=O)c2cccc([N+](=O)[O-])c2)cc1	0.733	1.0	i	-1.7	3.0	0.0	-1.1	-2.6	-3.5
CCC(C)[C@H](NC(=O)N1CC(=O)Nc2ccccc21)C(=O)N1CCC[C@@H]1C(=O)O (some centres not stated)	0.701	0.4	i	0.4	3.5	.	.	.	.
CC(C)[C@H](NC(=O)c1ccccc1Cl)C(=O)OCc1cc([N+](=O)[O-])cc2c1OCOC2	0.702	-6.8	.	-3.7	0.8	.	.	.	5.2
COC(=O)c1ccc(NC(=O)COc2ccc(S(=O)(=O)NC(C)(C)C)cc2)cc1	0.656	0.9	i	0.2	2.3	11.6	-2.2	3.2	1.9
O=S(=O)(N1CCCCC1)N1CCN(CC(O)COc2ccc3cc(Br)ccc3c2)CC1 (configuration not stated)	0.75	4.2	.	1.9	0.7	.	.	.	0.3
CCCCN(C(=O)CN1C(=O)C2CCCCC2C1=O)c1c(N)n(Cc2ccccc2)c(=O)[nH]c1=O (configuration not stated)	0.676	-1.5	i	-3.4	-3.3	9.4	7.7	0.5	-2.5
Cc1cc(OCCCn2ccnc2)ccc1[N+](=O)[O-]	0.684	-6.7	i	0.3	8.1	6.3	6.0	4.3	-12.4
Cc1cc(C(=O)CCl)c(C)n1-c1ccon1	0.644	5.9	i	3.3	2.2	21.9	6.9	-1.8	.
Cc1cc(C)cc(C(=O)NC(CC(N)=O)c2ccc(NC3CCCCC3)c([N+](=O)[O-])c2)c1 (configuration not stated)	0.715	1.7	i	9.7	1.5	16.8	18.0	-9.0	-0.9
COc1ccc(C(c2nnnn2C2CCCCC2)N2CCN(c3ccccc3F)CC2)cc1 (configuration not stated)	0.763	-0.6	.	-1.4	1.3	.	.	.	.
CCN(CCNCC(O)COc1ccccc1C(C)C)c1cccc(C)c1 (configuration not stated)	.	45.2*	i	0.5	.	-55.5	-80.5	-20.8	99.1*
Cc1ccc(NC(=O)C(C)N2C(=O)C3CC=C(Cl)CC3C2=O)cc1 (configuration not stated)	0.762	-3.5	.	-0.5	1.0	.	.	.	-6.9
O=C(O)c1ccc(CSc2n[nH]c(-c3ccco3)n2)cc1	0.643	-9.9	.	-16.2	2.1	.	.	.	-35.4
CCN1C(=O)c2ccccc2S(=O)(=O)c2ccc(C(=O)NC(C)C)cc21	0.677	-1.1	i	0.4	4.3	4.6	11.8	0.6	.
CN1C2CCC1CC(N(CCc1ccccc1)C(=O)c1ccc(Cl)cc1)C2 (configuration not stated)	0.713	1.9	i	0.3	3.7	-8.2	-5.3	2.3	0.2
CS(=O)(=O)c1ccc(Cl)c(NC(=O)COC(=O)CNC(=O)c2cccs2)c1	.	-5.7	i	3.7	.	9.9	19.1	-0.3	-0.5
O=C(CNC(=O)c1ccccc1F)OCc1nc2ccccc2s1	0.742	0.4	i	8.1	3.1	-2.3	-8.8	0.2	-2.1
Cc1ccc(SCc2[nH]nc3c2C2(C(=O)Nc4ccc([N+](=O)[O-])cc42)C(C#N)=C(N)O3)cc1 (configuration not stated)	0.691	84.0*	.	6.8	4.7	.	.	.	-2.8
CCc1ccc(NC(=O)CCc2nc3cccnc3n2Cc2ccc(OC)cc2)cc1	0.771	5.4	.	2.6	2.4	.	.	.	-9.7
CCCN(C(=O)Cc1nc(N)n[nH]1)C1(C(=O)Nc2ccccc2C)CCCCC1	0.688	-3.4	.	0.2	24.6*	.	.	.	.
Cc1ccc(Cn2c(=N)c(S(=O)(=O)c3ccc(Br)cc3)cc3c(=O)n4ccccc4nc32)cc1	0.711	-5.4	.	14.6	2.3	.	.	.	-1.0
COc1ccc(N2C=C3C(=O)C(C)(OC(=O)CCc4ccccc4)C(=O)C=C3C=C2c2ccc(C#N)cc2)cc1 (configuration not stated)	0.694	2.8	i	3.5	-2.5	13.8	9.4	-1.5	-15.5
COc1ccc(S(=O)(=O)NCCc2cn3nc(C)c(C)nc3n2)cc1F	0.696	0.4	i	-2.5	i	4.3	4.7	-2.0	0.2
The results go on:
SMILES	E coli growth	Beta2AR agonist	FGF22 binding	HNF4A DNA FP	UCH37 DUB inh	rRNA inh HTS	rRNA inh HTS OD600	rRNA inh HTS RFP	ALR H2O2 inh
Cc1ccc2[nH]c(=O)c(CN(Cc3ccccc3)C(=S)NCCCN(C)C)cc2c1	0.68	-2.6	i	7.5	1.0	-13.9	-16.4	3.1	-3.1
Cc1ccc(NC(=O)Nc2nc3ccc(S(C)(=O)=O)cc3s2)cc1	0.667	1.2	i	-1.8	-0.9	3.6	6.5	1.0	.
O=C1CCC(=O)N1CC(=O)N(c1ccccc1)c1ccccc1	0.657	2.2	i	-5.3	-1.5	13.1	8.5	0.6	2.3
COc1cc(NC(=O)CSc2ccc3c(c2)OCCO3)cc(OC)c1OC	0.787	-6.8	.	-3.1	0.0	.	.	.	-8.1
Cc1ccc(S(=O)(=O)N(CC(O)CN2C(=O)NC(C)(C)C2=O)c2cccc(C)c2)cc1 (configuration not stated)	0.648	-7.9	i	-0.4	2.7	3.7	0.8	-5.3	-2.9
CCN(CCO)Cc1csc2cccc(Br)c12	0.696	-0.4	.	0.0	-0.4	.	.	.	.
Cc1cc(C(=O)N[C@@H](c2ccccc2)[C@]2(C)C[C@H]2[C@@H](C)C(=O)Nc2ccc3ccccc3c2)no1	.	6.7	i	-1.5	-0.7	-1.7	8.6	-1.1	69.8
O=c1[nH]c(CN2CCCC2)nc2sc3c(c12)CCC3	0.704	2.2	i	-1.3	-34.6	10.5	8.7	4.3	4.7
O=C(/C=C/N1CCOCC1)c1coc2ccccc12	.	-0.1	.	1.7	.	.	.	.	5.2
c1ccc(-n2nnnc2-n2ccnc2)cc1	0.633	-2.1	.	1.9	3.7	.	.	.	-3.5
Cc1ccc(C(=O)OCc2cc(=O)n3c(C)csc3n2)s1	0.647	-0.3	i	3.0	-2.5	-5.9	-2.5	-0.9	.
Nc1ccc(-c2ccc(C(=O)O)s2)cn1	0.657	1.9	i	2.4	i	.	.	.	-9.1
O=C(c1cccc2nc3ccccc3nc12)N1CCOCC1	0.668	0.6	i	3.2	9.7	-7.2	-9.4	-5.3	26.7
Cc1cccc(NC(=O)CN2C(=O)NC(Cc3ccccc3)C2=O)c1 (configuration not stated)	0.772	-2.8	.	1.8	4.1	.	.	.	18.2
COc1ccc(C(=O)Nc2ccccc2C(=O)NC(Cc2ccc(O)cc2)C(=O)NNC(=O)c2ccccc2Cl)cc1 (configuration not stated)	0.647	15.5	.	1.6	-16.3	.	.	.	1.5
O=C1CC(N(CCc2ccccc2)C(=S)Nc2ccccc2)C(=O)N1c1ccc(F)cc1 (configuration not stated)	0.623	-1.0	i	1.6	2.7	-24.2	-23.9	1.6	-9.8
CCCCC(=O)Nc1ccc(C(=O)NCCCn2ccnc2)cc1	0.762	3.2	.	-1.8	2.1	.	.	.	-38.5

From PubChem
